ClpP mod: qHTS Assay for Activators of ClpP; ATP-dependent Clp protease proteolytic subunit (Bacillus subtilis (strain 168)), P80244; 1.9% of 340,000 active; purified B. subtilis ClpP, FRET peptide cleavage, 20 min; Potency, µM (series often up to 57.5 µM), for inactives: at the top dose activity change, negative = active; active = well fitted falling curve with a large enough effect; inconclusive = small, poorly fitted or top-dose-only effect; inactive = no such curve, though single readings can be large or run the other way; further: the source files actives as falling curves though it sought activators and does not explain the sign; nearly all actives have a fitted effect of over 65% in size; many hits overshoot -100%
Target sequence (P80244 whole entry, looked up): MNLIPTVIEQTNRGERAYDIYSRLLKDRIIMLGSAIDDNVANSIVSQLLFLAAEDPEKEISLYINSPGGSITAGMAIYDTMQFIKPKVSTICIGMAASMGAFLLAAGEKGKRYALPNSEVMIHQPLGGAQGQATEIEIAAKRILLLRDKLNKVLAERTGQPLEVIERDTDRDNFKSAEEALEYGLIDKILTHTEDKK
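Purified B. subtilis ClpP, 10 microg/mL final in Tris/HCl pH8 with KCl, BSA, glycerol and Tween-20, cleaved an Abz/nitrotyrosine-quenched decapeptide. Fluorescence (ex 320, em 430) was read at 0 and 20 min at room temperature. Delta was normalized to 5.8 microM ADEP and DMSO/no-enzyme controls.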
Numbers without * were called inactive; ? = inconclusive. Potency means the concentration at half of the fitted maximal effect. An excerpt. The share of hits here may be higher or lower than overall.

SMILES	ClpP mod
COc1ccc(NC(=O)c2cc(C3CCCCN3S(=O)(=O)c3ccc(F)cc3F)on2)c(C)c1 (stereo not drawn)	-0.9%
CC(C)(C)N1C(=O)c2ccccc2NC(=O)C1C(=O)Nc1ccc2c(c1)OCCO2 (stereo not drawn)	-7.6%
CC(C)c1ccc(NC(=O)c2cc3c([nH]c2=O)CC(C)(C)CC3=O)cc1	-0.5%
Cc1cccc(C)c1NC(=O)C(c1ccncc1)n1c(=O)c(-c2cc3ccccc3[nH]2)nc2ccccc21 (stereo not drawn)	-23%
CC(=O)c1cccc(NC(=O)C2Cc3c(-c4ccc(Cl)cc4)ccnc3O2)c1 (stereo not drawn)	5.3%
Nc1nc(NCc2ccc(F)cc2)c2[nH]cnc2n1	0.1%
Cc1cccc(C)c1NC(=O)C1(C)CSCC(=O)N1Cc1cccc(F)c1 (stereo not drawn)	1.3%
Clc1cccc[n+]1CCCC[n+]1ccccc1Cl	-3.2%
CCOC(=O)[C@]12CCCC=C1N(Cc1ccc(Cl)cc1Cl)C(=O)[C@H](CC(=O)N1CCN(C(=O)c3ccco3)CC1)C2	1.4%
CC1CCN2c3ccccc3CC3(C(=O)OC(C)(C)OC3=O)C2C1 (stereo not drawn)	4.0%
CC(=O)Nc1ccc(-c2ccnc3c2CC(C(=O)NCC2CCOCC2)O3)cc1 (stereo not drawn)	4.8%
CCCNC(=O)CNC(=O)c1ccccc1OCC(=O)Nc1ccc(Br)cc1	-0.3%
CCCS(=O)(=O)NC(=O)C1(C)CCN(C(=O)c2snnc2C)C1 (stereo not drawn)	1.9%
CCOc1cccc(C2C=C(c3ccc4c(c3)OCO4)NC(c3ccc(F)cc3)N2)c1O (stereo not drawn)	1.2%
O=C(Cc1ccc(OCC2CCCCC2)cc1)NO	-0.5%
CN(C)c1ncnc2c1ncn2[C@H]1CN(Cc2ccc(-c3ccccc3)cc2)C[C@@H](CO)O1	-1.2%
CCCCN(C=O)c1c(CC)nc2ccc(C(=O)NCCN(C)C)cn12	-19%
N#Cc1cccc(-c2csc(C(O)(c3ccccc3)C(F)(F)F)n2)c1 (stereo not drawn)	-0.2%
CN(C)c1ccc(/C=C/c2ccnc3ccc(O)cc23)cc1	-2.9%
CC(C)c1cccc(C(C)C)c1Nc1cn[nH]c1	2.8%
COc1cccc(C(=O)Nc2ccc3c(c2)OC[C@H](C)N(CCc2ccccc2)C[C@@H](C)[C@@H](OC)CN(C)C3=O)c1	?
O=C(NCCO)c1cccc(-c2cnc3c(Nc4cccc(OC(F)(F)C(F)F)c4)nccn23)c1	-16%
COC(=O)C[C@@H]1OC[C@H](Cc2ccccc2)N1S(=O)(=O)c1ccc(C)cc1	0.0%
CC(=O)Nc1ccc(/C=C/C(=O)c2ccc(-n3nncc3-c3ccccc3)cc2)cc1	-7.8%
CO[C@@H]1CN(C)C(=O)c2cc(NC(=O)NC3CCCCC3)ccc2OC[C@@H](C)N(CC2CCOCC2)C[C@@H]1C	-0.7%
Cc1ccc(C(O)c2ncc(-c3ccccc3C)[nH]2)cc1F (stereo not drawn)	-2.5%
COc1ccc(-c2c(C(=O)c3ccccc3)[nH]c(N)c2C(=O)NC2CC2)cc1OC	-9.1%
CCN(CC)C(=O)c1cccc(-c2csc(C(O)c3ccc(F)c(F)c3)n2)c1 (stereo not drawn)	-2.9%
O=C1NC[C@H](CCCCN2CCN(CCC3CCCCC3)C(=O)C2=O)N(CCc2ccccc2)C1=O	0.4%
Cc1cc(Cl)ccc1C(O)c1ncc(-c2cccc(C(F)(F)F)c2)[nH]1 (stereo not drawn)	-5.6%
COCCNC(=O)C1(C)CCN(C(=O)c2ccc3ccccc3n2)C1 (stereo not drawn)	-4.3%
Cc1cccc(CNC(=O)Nc2nnc([C@@H]3C[C@H](O)[C@@H](CO)O3)s2)c1	-3.1%
NC(=O)c1cccc(-c2ccnc3c2CC(C(=O)Nc2cccc(Oc4ccccc4)c2)O3)c1 (stereo not drawn)	-15%
Cc1ccc2nc(C3CCCCC3)c(Cc3cccc(Cl)c3)n2c1	6.1%
CNc1ncnc2c1ncn2[C@H]1CN(Cc2cccc3ccccc23)C[C@@H](CO)O1	-0.9%
CN1CCN(c2ccnc(N(C)CCCCCCN)n2)CC1	4.6%
CC(=O)C[C@@H]1OC[C@H](C(C)C)N1S(=O)(=O)c1ccc(C)cc1	-1.0%
CC1=C(C(=O)N2CCOCC2)CC(CC(=O)NCCCN(C)C)C(=O)N1CCCN1CCCC1=O (stereo not drawn)	0.4%
COc1cccc(-c2cnc(C(O)c3c(C)cc(C)cc3C)[nH]2)c1 (stereo not drawn)	-5.0%
COCCNC(=O)C1CCCN(Cc2ccccc2F)CC1 (stereo not drawn)	1.1%
Cc1ccc(NC(=O)C2(C)CCN2C2Cc3ccccc3C2)cc1 (stereo not drawn)	1.3%
CCCC(=O)N1CCC1(C)C(=O)NS(=O)(=O)c1ccccc1 (stereo not drawn)	-0.1%
COc1ccc(NC(=O)C2(C)CCCN(C(C)C)C2)cc1F (stereo not drawn)	-5.7%
O=C(Nc1ccc2c(c1)OCCO2)C1c2ccccc2OCC(=O)N1C1CC1 (stereo not drawn)	-1.7%
O=C1NCc2c1c1c3ccccc3[nH]c1c1[nH]c3ccccc3c21	4.3%
CN(C)c1cccc(CNC(=O)c2ccc3sc([C@H]4C[C@H](O)[C@@H](CO)O4)nc3c2)c1	-0.1%
CCCCN1CCCCC1(C)C(=O)NCc1cccs1 (stereo not drawn)	1.4%
CC(C)C[C@@H](COCc1ccc(C(F)(F)F)cc1)N1CCN(C(=O)c2ccc(C(F)(F)F)cc2)CCC1=O	4.3%
CCCCC1Cc2[nH]c(=S)[nH]c(=O)c2C(c2cccc3ccccc23)O1 (stereo not drawn)	-0.6%
O=C1[C@H](Cc2ccccc2)NC/C=C\C[C@H](c2ccc(Cl)cc2)N1Cc1ccc(Cl)cc1	-1.6%
CC(=O)Nc1cc(-c2ccccc2N(C)C)cn2c(-c3cccc(C(F)(F)F)c3)cnc12	?
COc1ccc2c(c1)C/C(=C\c1ccc(N(C)C)cc1)C2=O	-0.4%
COc1ccc(-c2cnc(C(O)c3ccccc3)[nH]2)cc1 (stereo not drawn)	-12%
O=C(Nc1nnc([C@@H]2C[C@H](O)[C@@H](CO)O2)s1)c1cccc(OC(F)(F)F)c1	-1.7%
CCCCNC(=O)C[C@@H]1C[C@@]2(C(=O)OCC)CCCC=C2N(Cc2ccccc2)C1=O	2.8%
CC(C)(C)NC(=O)COC(=O)CNC(=O)C1CCCCC1	3.3%
COc1ccc(CCN2C(=O)c3ccccc3C2c2nnnn2Cc2ccccc2)cc1OC (stereo not drawn)	1.1%
CCCCCCCCCC[n+]1cccc2cc(Br)ccc21	-1.2%
CCOC(=O)N1CCN(C(=O)c2[nH]c(C(F)(F)F)nc2-c2ccccc2)CC1	-3.5%
COc1ccc(Cn2cc(CN3CC(N4CC=CC4)CS3(=O)=O)nn2)cc1 (stereo not drawn)	0.5%

Ordered by molecular weight (falling): some entries from above
SMILES	ClpP mod
O=C1[C@H](Cc2ccccc2)NC/C=C\C[C@H](c2ccc(Cl)cc2)N1Cc1ccc(Cl)cc1	-1.6%
COc1ccc2c(c1)C/C(=C\c1ccc(N(C)C)cc1)C2=O	-0.4%
COc1ccc(-c2cnc(C(O)c3ccccc3)[nH]2)cc1 (stereo not drawn)	-12%

(cont.)
SMILES	ClpP mod
CN(C)c1cccc(CNC(=O)c2csc([C@@H]3O[C@H](CO)[C@H](O)[C@H](O)[C@H]3O)n2)c1	-0.3%
CC(C)N(C)c1ncnc2c1ncn2[C@H]1CN(CCc2ccccc2)C[C@@H](CO)O1	-0.4%
COc1ccc(-c2coc3c(C(=O)NCCc4ccccc4)cccc23)c(C)c1	-22%
O=C1NC[C@H](Cc2ccc(O)cc2)N(C[C@@H]2CCCN2C[C@H](Cc2ccc(O)cc2)N2C[C@H](Cc3ccccc3)N(CCc3ccccc3)C(=O)C2=O)C1=O	2.2%
Cc1c(C(=O)NCc2ccc3c(c2)OCCO3)sc(=O)n1Cc1ccc(C(=O)N(C)C)cc1	1.7%
O=C1[C@H](Cc2ccccc2)NC/C=C\C[C@@H](c2ccc(Cl)cc2)N1Cc1ccccc1	1.7%
CCCCNC(=O)C(NC(=O)c1ccc(-c2ccccc2)cc1)C(=O)c1ccccc1 (stereo not drawn)	-4.3%
O=C1NC[C@H](CCCCN2CCN(CC3CCCCC3)C(=O)C2=O)N(CCC2CCCCC2)C1=O	0.6%
Cn1nc(-c2cccnc2)nc2c(=O)n(C)c(=O)nc1-2	-1.9%
O=C(Nc1ccccc1)OCCc1ccccc1	-4.5%
CCCCc1c(-c2ccc(Cl)cc2)ncn1CCc1ccccc1OC	-1.4%
CCOC(=O)[C@]12CCCC=C1N(Cc1ccco1)C(=O)[C@H](CC(=O)N1CCC(c3ccccc3)CC1)C2	0.0%
CC1(Cc2ccccc2C#N)C(=O)Nc2ccc(OC(F)(F)F)cc21 (stereo not drawn)	-0.4%
Nc1cc(=O)[nH]c2c1CCC2	-20%
CCCCCCCCCCCCCCCCCCN(CCCCCCCCCCCCCCCCCC)c1ccc(C=O)cc1	1.4%
CN(Cc1ccccc1)C(=O)C1(C)CCN1C(=O)Cc1ccc(Cl)cc1Cl (stereo not drawn)	0.1%
Cc1ccc(C)c(C(O)c2ncc(-c3ccccc3)[nH]2)c1 (stereo not drawn)	-2.9%
CCOC(=O)C1=C(C)N=c2sc(=Cc3ccc(OCC(=O)O)cc3)c(=O)n2C1c1ccc(SC)cc1 (stereo not drawn)	-2.1%
CCCCCc1c(-c2ccc(Br)cc2)ncn1CCc1ccccc1OC	-0.1%
COc1ccc(C(C(=O)NC2CCCCC2)n2c(=O)c(-c3ccco3)nc3ccccc32)cc1 (stereo not drawn)	-13%
COc1cc(NC(=O)c2ccc(-c3ccc(F)c(F)c3)c3ccoc23)cc(OC)c1OC	84%
CCOC(=O)C[C@H]1c2cc(F)ccc2S(=O)(=O)N1Cc1cc(OC)c(OC)c(OC)c1	1.9%
CC1(C(=O)NC2CCCCC2)CCC(=O)N1CCOc1ccccc1 (stereo not drawn)	-4.3%
COc1ccccc1CCn1cnc(Cc2ccccc2)c1C(C)C	-1.7%
CCCCCCCCN1C(=O)[C@H](CC(=O)N2CCN(C(=O)c3ccco3)CC2)C[C@@]2(C(=O)OC)CCCCC=C12	0.8%
CC(C)S(=O)(=O)N1CCN(c2nc(-c3cccs3)nc3ccccc23)CC1	?
CCCc1nc2cc(C)c(Br)c(C)n2c1CC1CCCCC1	-12%
COc1ccc(Br)c(Cn2c(C)c(C(=O)NCc3cccc([N+](=O)[O-])c3)sc2=O)c1	-0.7%
CCOC(=O)[C@]12CCCC=C1N(Cc1ccco1)C(=O)[C@H](CC(=O)N1CCSCC1)C2	-0.3%
COc1ccccc1C(NC(=O)C1CCN(CCOc2ccc3ccccc3c2)CC1)c1ccccn1 (stereo not drawn)	-1.1%
COc1cc(C(O)c2nc(-c3ccc(N(C)C)cc3)cs2)ccc1F (stereo not drawn)	-4.4%
Cn1c(=O)c2cc(NC(=S)NCc3ccccc3F)ccc2n1Cc1ccc(F)cc1	4.1%
COCc1cccc(-c2csc(C(NC(C)=O)c3ccccc3)n2)c1 (stereo not drawn)	0.9%
CS(=O)(=O)Nc1cccc(NC(=O)C2Cc3c(-c4cccc(C(N)=O)c4)ccnc3O2)c1 (stereo not drawn)	-6.1%
CCc1nc2ccc(C(=O)N(C)CCN(C)C)cn2c1N(CC)C(=O)NCCc1ccccc1	-2.0%
CC(=O)OC[C@@H]1CN(Cc2ccccc2)C[C@H](n2cnc3c(N4CCOCC4)ncnc32)O1	-4.6%
Cc1cccc2c(C(O)c3cn(C)c4ccccc34)c[nH]c12 (stereo not drawn)	4.9%
O=C(NC(c1ccc(Cl)cc1)c1ccsc1)C1CCN(Cc2cccc(Cl)c2)CC1 (stereo not drawn)	2.3%
Fc1cc(Cl)ccc1Nc1nc(NCc2ccccc2)nc2ccsc12	4.9%
O=C(COc1ccccc1C(=O)Nc1ccccc1)Nc1cccc([N+](=O)[O-])c1	-3.8%
COc1cccc(CN2CCC2(C)C(=O)Nc2cccc(Oc3ccccc3)c2)c1F (stereo not drawn)	-6.0%
COc1ccc(CNC(=O)c2ccc(-c3cccnc3)c3ccoc23)cc1OC	-7.2%
Cc1ccc(S(=O)(=O)N2C3CCCCC3O[C@H]2CC(=O)c2cccs2)cc1 (stereo partly drawn)	1.8%
Fc1ccc(CCn2c(Cn3c(-c4cnccn4)nc4ccccc43)nc3ccccc32)cc1	-2.4%
CCc1nc2c(OCc3ccc(C(F)(F)F)cc3)cccn2c1N(C)C(C)=O	-4.9%
Cc1cc2ccccc2cn1	-5.0%

Structures above that have a Cl atom, in the order listed:
SMILES	ClpP mod
CC(=O)c1cccc(NC(=O)C2Cc3c(-c4ccc(Cl)cc4)ccnc3O2)c1 (stereo not drawn)	5.3%
Clc1cccc[n+]1CCCC[n+]1ccccc1Cl	-3.2%
CCOC(=O)[C@]12CCCC=C1N(Cc1ccc(Cl)cc1Cl)C(=O)[C@H](CC(=O)N1CCN(C(=O)c3ccco3)CC1)C2	1.4%
Cc1cc(Cl)ccc1C(O)c1ncc(-c2cccc(C(F)(F)F)c2)[nH]1 (stereo not drawn)	-5.6%
Cc1ccc2nc(C3CCCCC3)c(Cc3cccc(Cl)c3)n2c1	6.1%
O=C1[C@H](Cc2ccccc2)NC/C=C\C[C@H](c2ccc(Cl)cc2)N1Cc1ccc(Cl)cc1	-1.6%
O=C1[C@H](Cc2ccccc2)NC/C=C\C[C@@H](c2ccc(Cl)cc2)N1Cc1ccccc1	1.7%
CCCCc1c(-c2ccc(Cl)cc2)ncn1CCc1ccccc1OC	-1.4%
CN(Cc1ccccc1)C(=O)C1(C)CCN1C(=O)Cc1ccc(Cl)cc1Cl (stereo not drawn)	0.1%
O=C(NC(c1ccc(Cl)cc1)c1ccsc1)C1CCN(Cc2cccc(Cl)c2)CC1 (stereo not drawn)	2.3%
Fc1cc(Cl)ccc1Nc1nc(NCc2ccccc2)nc2ccsc12	4.9%
